Screening results as filed in PubChem BioAssay.
Vaccinia Venus = vaccinia inhibition (Venus reporter) | 330,000 compounds, 0.46% hits | AID 720580 | Potency, µM (titrated, usually from 36.5 µM), for inactives: at the top dose activity change, negative = inhibition, most hits filed as inhibitors | Vaccinia virus Venus reporter expression, fluorescence; active means well fitted inhibition curve with a large enough effect; inconclusive means small, poorly fitted or top-dose-only effect; inactive means no such curve, though single readings can be large or run the other way; tested in A549 cells; note: nearly all actives have a fitted effect of over 30% in size; inactives centre near -10
VACV mCherry inh = vaccinia inhibition (mCherry reporter); 310,000 compounds, 0.63% hits; Potency, µM (top dose mostly 36.5 µM), inactives show top-dose activity change, negative = inhibition, actives largely listed as inhibitors; AID 720579; Vaccinia virus mCherry reporter infection, fluorescence; about a quarter of the inactives have no number; active = well fitted inhibition curve with a large enough effect; inconclusive = small, poorly fitted or top-dose-only effect; inactive = no such curve, though single readings can be large or run the other way; tested in A549 cells; note: nearly all actives have a fitted effect of over 35% in size; inactives centre near -10
Active calls of the source: *; i = inactive; ? = inconclusive; nt = no result given; & = joins results of further samples; [ ] = dose if it differs, or a comment. % is set by controls: 0 for no effect and ±100 for the full control effect; potency is the fitted concentration of half-maximal effect.

SMILES | Vaccinia Venus | VACV mCherry inh
COc1cccc(C2CC(C(F)(F)F)n3nc(C(=O)NCc4cccnc4)cc3N2)c1 (stereo unspecified) | -6.6% | i
CCC1Oc2ccccc2N(CC(=O)NCc2cccs2)C1=O (stereo unspecified) | -1.8% | -12.7%
O=C(c1cccs1)N1C[C@@H](O)[C@H](n2cc(-c3ccc(F)cc3)nn2)C[C@@H]1c1ccccc1 | -21.8% | i
COc1ccc(-c2csc(C(C)(NC(C)=O)c3ccc(OC)cc3)n2)cc1 (stereo unspecified) | 7.0% | -0.7%
O=C(NCc1cccnc1)OC1CC2CC1[C@H]1CCCCN1C2=O (stereo partly specified) | 5.0% | 4.0%
CCN1CCN(c2csc3ccc(F)cc3c2=O)CC1 | -18.6% | -22.5%
O=C(CCc1c[nH]c2ccccc12)NCc1cccc(Cl)c1 | -14.7% | ?
Cc1nonc1CN(C)C(=O)CC1C(=O)NCCN1Cc1c(F)cccc1Cl (stereo unspecified) | -9.5% | -1.0%
COc1cccc(NC(=O)Cn2c3ccccc3c3nc4n(c(=O)c32)CCS4)c1 | 0.2% | 6.6%
O=C(CCS(=O)(=O)c1cccs1)Nc1ccc(C(=O)Nc2cccc(Cl)c2)cc1 | -16.1% | -21.2%
COc1ccc(OC)c(NC(=O)C2=C(C)Nc3ncnn3C2c2cccs2)c1 (stereo unspecified) | ? | nt
COc1ccccc1NC(=O)Cc1noc(CSc2cccc[n+]2[O-])n1 | 12.2% | nt
COc1ccc(CN2CC[C@H]3C=CC[C@@H](C(=O)N4CCN(c5ccccc5)CC4)[C@H]3C2=O)cc1OC | -3.1% | -9.6%
CCN(CC)S(=O)(=O)c1cccc(NC(=O)COC(=O)/C=C/c2ccco2)c1 | -11.6% | -12.4%
CCN(CC(=O)Nc1ccccc1C(F)(F)F)C(=O)c1oc2ccc(OC)cc2c1C | -1.6% | -16.2%
CCOC(=O)N/N=C/c1cc(OC)c(O)c(OC)c1 | -6.1% | i
Cn1c2ccc(F)cc2c2nnc(SCC(=O)Nc3cccc(O)c3)nc21 | -7.6% | i
O=C(CN1CCCc2ccccc21)NC(=O)NCc1ccccc1 | -3.3% | -23.1%
Cc1cc(C(=O)N(C)CC(=O)Nc2cccc(F)c2)no1 | 6.5% | -9.2%
COCCCn1c(SCC(=O)Nc2ccc(NC(=O)c3ccco3)c(OC)c2)nc2ccccc2c1=O | -4.3% | -20.0%
COCC1CCCN(Cc2ccc3c(c2)CN(C(=O)c2ccc(-c4ccc(C)o4)cc2)CCO3)C1 (stereo unspecified) | -10.4% | -12.3%
COc1ccc(CNC(=O)C2CCN(S(=O)(=O)c3c(C)noc3/C=C/c3cccs3)CC2)cc1 | -6.1% | -10.0%
CSc1ccccc1OCc1cc(C(=O)NC(C)c2cnn(C)c2)no1 (stereo unspecified) | -14.8% | -21.5%
COc1cc2c(cc1OC)C(c1cc3ccccc3oc1=O)=NC(C)(C)C2 | -25.7% | nt
CCOc1cccc(CN2CCC(N3CCC(C(=O)NCC4CCCO4)CC3)CC2)c1 (stereo unspecified) | -12.3% | ?
Clc1ccc(C=Cc2ccccn2)cc1 | -6.1% | i
CC(=O)c1cccc(NC(=O)CSc2ccc(-c3sc(C)nc3C)nn2)c1 | -11.5% | -24.9%
c1ccc2sc(C3(N4CCCCC4)CCCCC3)cc2c1 | -6.4% | i
Cc1cc(C(=O)Cn2cc(C(F)(F)F)ccc2=O)c(C)n1-c1ccccc1 | 1.5% | i
Cc1ccc(S(=O)(=O)NC(=O)Nn2c(C)nnc2C)cc1 | 0.0% | -11.6%
CN(C)C(CNC(=O)Nc1cccc(Cl)c1)c1cccnc1 (stereo unspecified) | -4.6% | -7.0%
Cc1c(C(=O)O)sc2nc(C)n(C)c(=O)c12 | 4.5% | i
COC(=O)c1ccc(C2c3c(n[nH]c3C)C(=O)N2c2ccc(C)cc2)cc1 (stereo unspecified) | -18.6% | -9.3%
Cc1cccc(CCNC(=O)C2CCC(=O)N(Cc3ccccc3F)C2)n1 (stereo unspecified) | -7.9% | -14.4%
Fc1ccc2c(c1)C(c1cccnc1)=NNC(c1cccs1)=N2 | -22.8% | -23.4%
Cc1nc2nc(SCC(=O)NC(C)c3ccccc3)nn2c(C)c1Cc1c(F)cccc1Cl (stereo unspecified) | -7.7% | -10.1%
CCOC(=O)C1(C(F)(F)F)N=C(C(F)(F)F)Nc2cc(C)c(C)cc21 (stereo unspecified) | -17.2% | i
C=CCNC(=O)/C(=C/c1cccc([N+](=O)[O-])c1)NC(=O)c1ccccc1 | -2.3% | ?
C/C(N)=C(/C#N)C(=O)CSc1nnc(NC(C)C)s1 | -6.0% | -1.2%
O=C(CN1CCCCC1)N1CCN(c2ccccc2)CC1 | -14.5% | -14.1%
COc1ccc(C2=Nn3c(nc4sc(C(=O)Nc5cccc(C)c5)c(C)c4c3=O)SC2)cc1 | 2.6% | -9.0%
CCc1cc(SC#N)cc(CC)c1NC(=O)CCl | -28.8% | -25.1%
CC(Sc1nnc(-c2ccccc2Br)o1)C(=O)N1CCOCC1 (stereo unspecified) | -21.7% | -2.3%
COc1cc(NC(=O)COC(=O)Cc2ccc(-c3ccccc3)cc2)cc(OC)c1 | -9.9% | i
O=[N+]([O-])c1cccc(-c2noc3c2-c2nc(Cc4cccc5ccccc45)sc2CC3)c1 | -9.0% | -12.7%
O=C(COc1ccc(Cl)cc1)NCCCNC(=O)c1ccncc1 | -0.3% | -9.4%
Cc1ccc(-c2ccc(=O)n(Cc3ccc(F)cc3)n2)cc1 | -11.0%[7.34 µM] | -11.8%[7.34 µM]
CCOC(=O)c1c(C)n(C)c2ccc(OCC(O)CN3CCCCCC3)cc12 (stereo unspecified) | ? | -10.5%
CC(=O)n1cc([C@@H]2C=C(C(=O)N3CCOCC3)O[C@H](OCc3ccc(CO)cc3)C2)c2ccccc21 | -5.7% | -0.8%
Cc1ccc(-c2noc(CCC(=O)NCC3CCN(Cc4cccc(C)c4)CC3)n2)cc1 | ? | nt
COc1ccc(NC(=O)Cn2nnc(C(=O)NCCc3ccc(OC)c(OC)c3)c2N)c(OC)c1 | -9.9% | i
CC(=O)Nc1ccc(CN2CCC(Oc3ccc(C(=O)N4CCCC4)cc3)CC2)cc1 | -8.6% | 0.0%
O=C(Nc1ccccc1N1CCOCC1)C1=NN(c2ccccc2)C(=O)CC1 | -29.8% | -23.5%
NCCCC[C@@H]1NC(=O)[C@H](CCC(=O)O)NC(=O)c2cc([N+](=O)[O-])cc(I)c2SC[C@@H](C(=O)NCC(N)=O)NC1=O | -4.3% | i
COc1ccccc1/C=C(/C(=O)OCC(=O)Nc1ccc(N(C)C)cc1)c1ccccc1 | -12.0% | i
COC(=O)C1=C(C)Nc2c(c(=O)n(C)c(=O)n2C)C1c1cccnc1 (stereo unspecified) | -9.8% | nt

Later entries:
SMILES | Vaccinia Venus | VACV mCherry inh
CC1C(Br)C(=O)NC(=O)N1Cc1ccccc1 (stereo unspecified) | -13.5% | -15.4%
CCOc1ccc(N2CC(NC(=O)C3CCCC3)CC2=O)cc1 (stereo unspecified) | -3.6% | 3.6%
NC(=O)C1CCN(c2ccc(C(F)(F)F)cn2)CC1 | -9.5% | -11.3%
O=C1C(=O)N(C2CCN(C(=O)c3ccccc3Cl)CC2)CCN1Cc1ccc(F)cc1 | -11.6% | -12.5%
O=C1CCC(=O)N1CCCCCc1nc(-c2ccccc2)no1 | -16.4% | nt
COc1ccc(N(C)C(=O)c2cc3c(s2)-c2ccccc2S(=O)(=O)C3)cc1 | -17.3% | 0.6%
COCCn1c(N)c(N(Cc2ccccc2)C(=O)C2CCCCC2)c(=O)[nH]c1=O | -8.4% | -9.3%
CNC(=O)c1[nH]cnc1C(=O)Nc1ccccc1 | -16.6% | -24.0%

The results go on:
structure | Vaccinia Venus | VACV mCherry inh
Nc1cc(N)nc(SCCc2ccccc2)n1 | -9.1% | i
O=C(CNC(=O)Cc1cccc2ccccc12)NCc1ccc(F)cc1 | -9.9% | -19.3%
CCCCN(C(=O)c1ccc(C)cc1)c1c(N)n(CCC)c(=O)[nH]c1=O | -0.1% | -3.3%
COc1cccc(C(=O)c2c[nH]c(C(=O)NCc3cccnc3)c2)c1 | -8.2% | i
C#CCOCCOCCOCCNc1nc(N2CCN(C(=O)[C@H](C)n3cc(CCC(=O)O)nn3)CC2)nc(N2CCN(C(=O)[C@H](C)n3cc(CCC(=O)O)nn3)CC2)n1 | 1.3% | -7.8%
CN(C)c1ccnc(-c2ccccc2C(F)(F)F)n1 | -17.7% | -14.9%
O=C(O)/C=C/C(=O)Nc1ccc(OC(F)(F)F)cc1Br | -11.0%[7.34 µM] | -14.0%[7.34 µM]
OC1(c2ccccc2)CC(c2ccccc2)c2ccccc2O1 (stereo unspecified) | -9.9% | ?
CCSc1nnc(NC(=O)c2cc(C)nc3ccccc23)s1 | -16.9% | -14.1%
CCCc1cc(N2CCN(c3cccc(C)c3C)CC2)n2cnnc2n1 | ? | ?
CCc1ccc(CN(Cc2cn[nH]c2-c2ccc(OC)cc2)C(=O)Nc2ccc(C)c(F)c2)cc1 | ? | -19.6%
O=C(N=C1SC2CS(=O)(=O)CC2N1Cc1ccccc1)C1CC1 (stereo unspecified) | -15.3% | -2.0%
COc1cccc(OC)c1OCCNC(C)(C)C | -3.5% | nt
Cc1ccc(Cn2c(CNC(=O)c3ccccc3Br)nc3cccnc32)cc1 | -4.6% | -10.6%
CC(C)(C)OC(=O)N1CCC[C@H]1c1nnc(SC/C=C/c2ccccc2)o1 | ? | nt
COc1ccc(NC(=O)CN(C)CC(=O)Nc2ccc(N3CCOCC3)cc2)c([N+](=O)[O-])c1 | -14.2% | -7.4%
COc1cc(C(C)=O)ccc1OCCN1CCC(Cc2ccccc2)CC1 | -16.5% | i
COc1ccc(CNC(=O)CSCc2cnn(-c3ccccc3)c2-n2cccc2)cc1OC | ? | ?
Cc1ccc(C(=O)C(C)OC(=O)Cc2c[nH]c3ccccc23)cc1 (stereo unspecified) | -14.5% | -5.1%
COc1ccc(C(=O)N2CCOC2CNC(=O)C(=O)NCCc2ccc(OC)c(OC)c2)cc1 (stereo unspecified) | -11.9% | -2.6%
O=C(CSc1nnc(SCc2ccccc2)s1)N/N=C/C=C/c1ccco1 | -7.7% | -2.4%
Cc1ccc2nc(-c3cccnc3)c(Nc3ccccc3C)n2c1 | -5.1%&-17.9% | -24.6%&-18.4%
COc1ccc(C2=NN(C(=O)CCC(=O)O)C(c3ccc([N+](=O)[O-])cc3)C2)cc1 (stereo unspecified) | -8.8% | -9.3%
C[C@@H](NC(=O)[C@@H]1CCCN1C(=O)[C@@H]1CCCN1)c1ccccc1 | 2.8% | -7.7%
N/C(=N\OC(=O)c1cccc([N+](=O)[O-])c1)c1ccccn1 | -8.5% | -13.5%
O=C(Cc1cccs1)NC1CCCC1 | -12.2% | -12.1%
COc1ccccc1C(=O)Nc1nc2nc(-c3ccccc3)cc(=O)n2[nH]1 | -9.7%&-5.2% | -3.3%
Cc1nccn1C[C@@H]1CCc2c(c3ccccc3n2C)C1=O | -16.8% | -3.9%
CCOc1c2ccccc2nn1CCOC | -15.5% | i
S=c1[nH]nc(-c2ccc(Cl)cc2)n1/N=C/c1cccs1 | -11.1% | ?
CCOC(=O)c1ccc(NC(=O)c2c(NCc3ccc(OC)c(OC)c3OC)sc3c2CCC(C)C3)cc1 (stereo unspecified) | -12.0% | -1.1%
CCOc1ccc(C2CC(c3ccccc3C)n3ncnc3N2)cc1 (stereo unspecified) | 0.7% | -3.4%
CCN(C(=O)COC(=O)c1cc(-c2cccc3ccccc23)nc2ccccc12)C1CCS(=O)(=O)C1 (stereo unspecified) | 0.2% | -9.4%
COc1ccc([C@H]2N[C@]3(CCCN(Cc4ccc(C(F)(F)F)cc4)C3=O)[C@H]3C(=O)N(Cc4ccccc4)C(=O)[C@@H]23)cc1 | ? | -4.0%
N#CCc1ccc(OC(=O)c2cnccc2C(F)(F)F)cc1 | -14.5% | i
CC(C)(C)OC(=O)C[C@H]1C/C=C\C[C@H](CC(=O)N[C@H](CO)Cc2ccccc2)C(=O)N[C@H](Cc2ccccc2)COC1=O | ? | -18.7%
CCC(=O)Nc1ccc(C(=O)Nc2cccnc2)cc1 | -18.8% | -17.0%
Cc1cc(C)nc(Nc2ncc(O)n2-c2ccc(Br)cc2)n1 | 8.6% | -13.6%
